# Compound activity (PubChem BioAssay)
# RanGTP-Impb inh: inhibitors of RanGTP-importin-beta interaction, primary screen, biochemical, FRET, CFP-Ran, YFP-importin-beta, homogeneous | cell-free CFP-Ran/YFP-importin-beta FRET ratio | inhibition, % (no concentration beside the values) | 300,000 tested, 1.1% active;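 active = most replicates above 15%; inconclusive = exactly half above 15%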;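 also: 0% = DMSO wells and 100% = Ran loaded with GDP instead of GTP; wells of about 40 µL received 100 nL stock; the first replicate is given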
# T cruzi repl: blocks replication of Trypanosoma cruzi; 300,000 tested, 1.4% active; inhibition, % (no concentration beside the values); T. cruzi beta-gal in NIH3T3, luminescence, 90 h;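 active = mean inhibition across valid replicates above about 55%, limit read from the data; inconclusive = mean below that limit but half or more replicates reach it; inactive = mean below it, under half of replicates reach it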;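 also: signal also drops with host cell toxicity which is not excluded here; 0% = plate median of DMSO wells and 100% = zero luminescence signal; higher percent means less beta-gal luminescence so fewer parasites; stock transfer was 50 nL into about 50 µL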
# LANA-H2A inh: blocks KSHV LANA binding to histone H2A/H2B; cell-free LANA-H2A/H2B peptide, fluorescence polarization; inhibition, % (no concentration beside the values); 320,000 tested, 0.6% active; AID 2629; in the data active = inhibition mostly above about 10%, no sharp cut-off; inactive = mostly below about 6.7%;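 also: stock transfer was 7.5 nL into about 10 µL; 0% = median of vehicle wells and 100% = median of positive control wells; one replicate is shown; the record names a cut of 25% in any replicate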
# Target sequence (Q9QR71 whole entry, looked up): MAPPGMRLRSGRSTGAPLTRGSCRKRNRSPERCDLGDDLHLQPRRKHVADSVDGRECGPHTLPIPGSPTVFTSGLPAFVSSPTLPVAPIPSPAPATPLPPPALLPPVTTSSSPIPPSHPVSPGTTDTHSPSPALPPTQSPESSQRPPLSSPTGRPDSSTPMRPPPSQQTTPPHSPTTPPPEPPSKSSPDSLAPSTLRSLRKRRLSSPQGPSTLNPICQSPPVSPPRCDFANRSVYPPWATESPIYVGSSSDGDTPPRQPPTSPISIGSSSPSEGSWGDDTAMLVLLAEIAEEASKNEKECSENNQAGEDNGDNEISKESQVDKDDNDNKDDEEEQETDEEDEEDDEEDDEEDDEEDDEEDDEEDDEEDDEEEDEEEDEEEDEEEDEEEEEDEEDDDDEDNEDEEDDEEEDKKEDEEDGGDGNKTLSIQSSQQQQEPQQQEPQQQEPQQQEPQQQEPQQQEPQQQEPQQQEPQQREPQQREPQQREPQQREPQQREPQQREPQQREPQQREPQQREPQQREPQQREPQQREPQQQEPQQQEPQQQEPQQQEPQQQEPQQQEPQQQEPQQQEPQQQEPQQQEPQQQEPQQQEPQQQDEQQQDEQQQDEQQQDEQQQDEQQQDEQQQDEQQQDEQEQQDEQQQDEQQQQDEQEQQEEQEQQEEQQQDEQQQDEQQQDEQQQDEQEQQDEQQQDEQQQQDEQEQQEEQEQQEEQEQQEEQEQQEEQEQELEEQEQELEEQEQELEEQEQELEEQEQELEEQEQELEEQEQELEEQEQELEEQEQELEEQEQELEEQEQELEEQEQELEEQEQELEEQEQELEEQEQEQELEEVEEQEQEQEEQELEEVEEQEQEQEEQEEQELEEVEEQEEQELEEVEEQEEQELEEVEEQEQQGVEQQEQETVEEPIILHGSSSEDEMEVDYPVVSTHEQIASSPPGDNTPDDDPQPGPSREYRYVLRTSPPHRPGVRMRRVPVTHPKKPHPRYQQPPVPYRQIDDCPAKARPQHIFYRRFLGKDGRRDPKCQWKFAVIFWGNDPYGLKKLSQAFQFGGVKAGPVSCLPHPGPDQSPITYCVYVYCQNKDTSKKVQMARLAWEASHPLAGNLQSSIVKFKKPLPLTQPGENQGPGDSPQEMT
# Beta cell apopt: blocks beta cell apoptosis. protection from apoptosis, % (concentration not given with the values). AID 435005. 300,000 tested, 0.8% active. INS-1E cytokine-induced death, ATP luminescence, 48 h; percent of positive-control rescue, neutral wells zero;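 active = all replicates at 75% or more, or half of them and the mean; inconclusive = half reach 75% but not the mean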;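 also: 0% = cytokine-treated negative control wells and 100% = positive control rescue; higher means more ATP so stronger rescue from cytokine killing; wells of about 40 µL received 100 nL stock; the first replicate is given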
# Calb FLC: affects C. albicans growth with fluconazole; growth inhibition, % (test concentration not listed); C. albicans CaCi-2 (fluconazole-resistant clinical isolate) + fluconazole, Alamar Blue growth, 48 h; 300,000 tested, 0.57% active; AID 1979;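 active = most replicates above 75%; inconclusive = exactly half above 75%; inactive = most below 75%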;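 also: all wells also contain fluconazole at 8 µg/ml as a sub-toxic cotreatment; 0% = median of DMSO wells and 100% = median of geldanamycin control wells; wells of about 8 µL received 7.5 nL stock; the first replicate is given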
# Vif A3G: inhibitors of Vif binding to APOBEC3G peptide, primary screen, biochemical, TR-FRET, GST-Vif 1-94, biotin-A3G peptide, dose response retest (AID 1117319) | TR-FRET GST-Vif / biotin-A3G peptide binding; higher % means a stronger effect; test concentration not given here; strong numbers were not always called active | one-dose inhibition, %; IC50 in µM for titrated hits | 260,000 tested, 0.57% active;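 active = above the screen mean plus three standard deviations and confirmed in dose response; inconclusive = results disagree or hit not tested in dose response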;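 also: Vif residues 1-94 fused to GST binding biotinylated APOBEC3G peptide 110-148; 0% = full assay without inhibitor and 100% = GST in place of GST-Vif; retest series ran down from 100 µM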
# MLL AF4-AF9 inh: blocks AF4 peptide binding to human AF9; P42568; AlphaScreen, biotin-AF4 peptide binding to FLAG-AF9; inhibition, % at 10 µM; 350,000 tested, 0.47% active;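 active = every replicate reaching a set inhibition limit, whatever the replicate mean, cut at about 25% in these data; inconclusive = mean inhibition reaches that limit but some replicates miss it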;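 also: 0% = plate neutral control median and 100% = total signal loss; the record names both 10 and 1 µM as test concentration; the first replicate is given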
# A1 inh: inhibitors of the anti-apoptotic protein A1, read as caspase activation. MEF A1-2A-BIM cells, Caspase-Glo 3/7 luminescence, 3 h; percent of clofoctol response, vehicle zero. caspase activation, % (test concentration not listed). 330,000 tested, 0.066% active;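 active = over half of replicate activation scores above 10%, or exactly half above 10 with the replicate mean above 10; inconclusive = replicate mean below 10 yet half the replicates above 10; inactive = over half of replicates below 10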;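 also: wells of about 30 µL received 50 nL stock; many hits fall short of the cut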
# * hit, by the source's call; ? = inconclusive; . = not tested or not shown; & = joins results of further samples.
SMILES,RanGTP-Impb inh,T cruzi repl,LANA-H2A inh,Beta cell apopt,Calb FLC,Vif A3G,MLL AF4-AF9 inh,A1 inh
CC#CCc1cc2ccccc2c(=O)o1,1.7,-5,1.2,.,1,.,0.3,0.7
CCC(=O)N(Cc1cc2cccc(C)c2[nH]c1=O)c1ccccc1OC,4.2,7,3.1,0,13,3%,8.5,0.8
Cn1c(SCC(=O)NCc2ccco2)nnc1-c1c[nH]c2ccccc12,3.5,-13,-2.8,1,-10,?,4.1,0.0
COCCC(=O)N1CCC(Oc2ccc(C(=O)NCCc3cnn(C)c3)cc2)CC1,3.4,-7,-2.4,3,2,5%,0.6,-0.6
N#Cc1cc2c(nc1SCC(=O)Nc1sc3c(c1C#N)CCC3)CCCCCC2,-5.3,21,-2.0,10,37,2%,.,0.8
COC(=O)c1[nH]c2ccc(Cl)cc2c1NC(=O)c1ccccc1[N+](=O)[O-],0.8,25,6.1,-2,-2,4%,.,-0.5
COc1ccc(C2(c3ccc(OC)cc3)NC(=O)N(CC(=O)Nc3ccc(N4CCOCC4)cc3)C2=O)cc1,0.8,-2,-5.1,0,10,3%,5.2,-0.4
C[C@@H](C(=O)NCc1ccccc1)[C@H]1C[C@]1(C)[C@H](NC(=O)OCc1ccccc1)c1ccccc1,8.5,13,-3.1,.,0,2%,1.1,1.6
COc1ccc(C2CC(=O)n3c(nc4ccccc43)S2)cc1OC (stereo not drawn),4.0,-19,-1.5,1,-7,-7%,.,-0.6
CCCCCCCCOC1OC(CO)C(O)C(O)C1NC(C)=O (stereo not drawn),1.1,-1,-1.1,-2,-2,15%,.,-0.3
O=C(CSc1nnc(-c2c[nH]c3ccccc23)n1-c1ccc(F)cc1)NCc1ccco1,-2.0,9,5.7,3,4,-1%,-2.8,-0.1
CCOc1ccccc1NC(=O)c1ccc(Cl)c(NC(=O)CC(c2ccccc2)c2ccccc2)c1,-3.5,50,-0.8,11,4,1%,.,0.1
COc1ccc(-c2csc(Nc3cccnc3)n2)cc1OC,-0.5,19,-0.4,6,24,3%,.,-1.1
COc1ccc(CN2CCOCC2)cc1Br,-2.8,-7,0.7,-4,6,2%,1.7,1.1
O=C1/C(=C/c2ccc([N+](=O)[O-])cc2)C=C(c2ccccc2)N1c1ccc(O)cc1,-1.8,2,7.1,18,10,-1%,9.1,-1.0
CN(C)/C=C/C(=O)c1cccc(Oc2ncccn2)c1,6.0,-16,5.4,-1,-14,-1%,-0.9,1.2
CCOC(=O)c1c(NC(=O)c2nn(CC)cc2Br)sc(C)c1C,5.2,14,3.3,9,11,-22%,.,0.6
Cc1ccc(C)c(OCCCN2CCc3ccccc3C2)c1,2.0,15,0.3,.,-18,.,-1.5,-0.2
COCCNC(=O)C(c1cccs1)N(CCc1ccccc1)C(=O)Cn1nnc2ccccc21 (stereo not drawn),2.2,5,2.0,0,1,3%&0%,.,0.5
CCOC(=O)c1cc(CC)sc1NC(=O)COC(=O)C1CCC1,-3.1,-12,3.6,-2,-8,.,-4.8,-0.4
O=C(NNC(=O)C1CCCO1)c1ccc(Cl)cc1 (stereo not drawn),0.9,-6,0.6,.,38,8%,.,0.5
O=C(CN1C(=O)CCC1=O)c1ccc(-c2ccccc2)cc1,4.6,-3,-4.6,1,0,-8%,-7.0,-0.2
COc1ccc(-n2c(SCc3ccc(C#N)cc3)nnc2-c2ccccn2)cc1,0.0,1,4.5,2,-8,3%,.,-0.2
COc1ccc(NC(=O)COc2ccccc2F)cc1S(=O)(=O)N1CCCCC1,2.8,9,0.8,-7,-5,2%,-0.3,-0.5
O=C(Cn1cc2c(n1)CCCCC2)Nc1c(F)cc(F)cc1Br,?,-5,-0.2,0,9,-3%,-4.8,0.1
CNS(=O)(=O)c1cccc(C(=O)OCC(=O)NC2CCCC2)c1,4.9,-4,0.3,-1,-6,-3%,-1.2,-0.2
CCn1c(SCC(=O)N/N=C/C=C/c2ccco2)nnc1-c1ccccc1,-3.2,-14,3.7,.,-3,.,1.5,0.7
Clc1cccc(Cl)c1CON/C=N/c1ncnc2sccc12,3.3,6,-0.3,27,1,-1%,.,0.0
COc1cc(/C=C/C(=O)Nc2nc3ccc(S(=O)(=O)N(C)C)cc3s2)cc(OC)c1OC,0.4,14,7.0,1,-1,.,.,-0.5
CN(Cc1ccccc1)C(=O)[C@@H]1CCCN1S(=O)(=O)c1ccc(Cl)cc1,-0.8,-4,2.7,-6,35,5%,0.9,-0.2
C[C@]12CCC(O)CC1CCC1C2CC[C@]2(C)C(c3cc(C(F)(F)F)n[nH]3)CCC12 (stereo partly drawn),1.9,9,-1.4,19,11,.,0.1,1.1
CC(OC(=O)c1ccc(S(=O)(=O)N(C)c2ccccc2)cc1)C(=O)NCCC1=CCCCC1 (stereo not drawn),0.2,15,1.4,-2,0,5%,-0.2,0.6
N#Cc1c(N2C(=O)C3C4C=CC(C4)C3C2=O)sc2c1CCC2 (stereo not drawn),0.6,1,-0.7,-6,-3,-4%,.,-1.1
O=[N+]([O-])c1ccc(-c2ccc(/C=N/n3cnnc3)o2)c(Br)c1,-0.8,15,11,-2,-5,.,4.7,1.0
C/C(=N/OC(=O)c1c(-c2c(Cl)cccc2Cl)noc1C)c1cnccn1,4.6,0,1.9,-10,4,4%,4.1,0.0
CC(Oc1ccc(Cl)cc1Cl)c1nc(-c2ccc(NC(=O)c3ccncc3)cc2)no1 (stereo not drawn),2.3,55*,8.1,.,15,2%,-2.9,-0.4
CSCC[C@H](NC(=O)C1CCN(C(=O)[C@@H](N)Cc2ccccc2)CC1)C(=O)O,-2.7,8,4.7,-8,2,-4%,3.0,-0.3
CCOC(=O)c1ccc(NC(=O)N2CCCCC2)cc1,6.3,15,4.0,1,-10,6%,.,-3.1
CCC(CC)C(=O)NCCNC(=O)C(CC)CC,3.5,-2,5.2,-7,3,?,.,1.6
CC(Sc1nnnn1C)C(=O)NC(=O)NC1CCCCC1 (stereo not drawn),3.6,-9,1.5,-6,0,1%,-0.7,-1.0
CCOc1ccc(CCNC(=O)CCc2nnc3ccc(N4CCCCC4)nn23)cc1OCC,4.0,18,0.8,2,-7,.,-6.1,.
COc1ccc([N+](=O)[O-])cc1NC(=O)C(C)OC(=O)CN1C(=O)C2CC=CCC2C1=O (stereo not drawn),-0.8,1,5.7,3,2,-3%,-0.4,0.3
CCCSCCCNC(=O)c1ccccc1NC(=O)C1=CSCCO1,4.0,-3,4.1,.,-5,-7%,-0.9,-0.4
CCOC(=O)C(NC(C)=O)C(=O)Nc1ccc(C(C)C)cc1 (stereo not drawn),4.9,7,0.0,-4,3,-7%,.,-0.4
Cc1cc(C(=O)N2CCN(S(C)(=O)=O)CC2)cs1,0.9,-4,0.5,-2,-11,-6%,2.8,-0.2
COc1cc(C(=O)NCC2CCCO2)cc(OC)c1OC (stereo not drawn),-3.0,-6,-7.5,.,8,-6%,.,0.0
Cc1ccc(COc2ccsc2C(=O)NNC(N)=S)cc1,0.3,5,-5.3,3,-4,.,1.8,0.0
CC1=Nn2c(nnc2-c2ccc(F)cc2)SC1,-1.6,-19,-1.7,4,1,3%,.,-0.3
CC(=O)c1cccc(NC(=S)NC(=O)CC(C)C)c1,-1.3,-1,-1.2,0,-7,-1%,.,0.7
COc1ccc(C(C(=O)NC(C)(C)C)N(Cc2cccs2)C(=O)CCC(=O)Nc2cc(C)on2)cc1 (stereo not drawn),-3.0,5,-4.5,-3,.,-1%,.,-0.5
COc1ccnc(-n2cccc2/C=N/O)c1C#N,-2.3,-3,-7.5,-12,-7,-11%,-0.2,-0.1
Cc1c(CC(=O)N2CCN(C(=O)C3COc4ccccc4O3)CC2)c(=O)oc2c(O)c(O)ccc12 (stereo not drawn),1.5,-21,-6.0,11,.,.,-0.4,0.3
COc1cc(C(=O)NCCc2c[nH]c3ccccc23)ccc1OCc1c(C)noc1C,?,-5,-13,4,-32,?,2.9,0.5
CCOC(=O)N1CCN(c2nc3ccccc3nc2C(C#N)C(=O)NCCc2ccccc2)CC1 (stereo not drawn),-8.3,31,-4.2,19,-1,6%,.,-0.1
CC1Cc2ccccc2N1Cc1cc(=O)n2ccsc2n1 (stereo not drawn),.,.,-0.5,-7,.,7µM*,.,-0.5
CC1CCN(S(=O)(=O)c2ccc(N/N=C(/C#N)C(N)=O)cc2)CC1,1.0,9,0.0,4,22,31%,.,0.1
COc1ccc(NC(=O)c2nc[nH]c2C(=O)Nc2ccccc2C)cc1,?,16,-4.5,-8,-1,24%,.,1.1
Cc1nc(NCc2ccccc2)sc1C(=O)Nc1ccccc1,-0.4,1,-7.3,4,4,3%,0.8,-1.0
CN(C)CC1(c2ccccc2)CCCC1,1.3,-3,-3.1,-3,22,2%,.,-0.2
CCCNc1nc(NCC)nc(OC)n1,-2.9,4,2.8,8,-1,5%,.,-0.4

# Next part (2 carried over from the part before).
SMILES,RanGTP-Impb inh,T cruzi repl,LANA-H2A inh,Beta cell apopt,Calb FLC,Vif A3G,MLL AF4-AF9 inh,A1 inh
CN(C)CC1(c2ccccc2)CCCC1,1.3,-3,-3.1,-3,22,2%,.,-0.2
CCCNc1nc(NCC)nc(OC)n1,-2.9,4,2.8,8,-1,5%,.,-0.4
CCC(CC)NC(=O)COC(=O)c1ccc(OCC(=O)Nc2ccccc2OC)c(OC)c1,-4.2,-2,-2.5,-4,-22,6%,.,-0.5
CCN(CC)c1nc2c(c(=O)n(C)c(=O)n2C)n1CCCc1ccccc1,-4.1,5,-0.3,-1,3,.,-2.6,0.1
O=C(NC(=O)c1ccccc1)OCC1CCCN2CCCCC12 (stereo not drawn),-0.5,-8,1.2,0,-1,1%,-4.3,-0.4
O=C(NCCCN1CCCC1=O)c1csc2ccccc12,-7.7,-20,0.5,0,2,0%,-0.5,-0.4
COCCn1c(=NC(=O)CCS(=O)(=O)c2ccccc2)sc2cc(C(=O)OC)ccc21,.,0,-2.4,-4,.,.,0.1,0.9
COCCNc1nc2nonc2nc1N1C[C@H]2CC[C@H]1C2,4.7,1,0.4,1,19,2%,-2.7,-0.2
COc1cccc(NC(=O)CSc2nnc(CN3CCOCC3)n2C)c1,-3.5,3,2.9,2,0,-4%,.,0.2
O=[N+]([O-])c1cc(C(F)(F)F)cc([N+](=O)[O-])c1NCCCNc1ccc([N+](=O)[O-])c2cccnc12,-3.1,35,5.5,28,-2,-1%,.,-0.4
S=C(Nc1ccc(Cl)c(Cl)c1)NN1CCOCC1,-0.2,-6,9.7,-5,-7,15%,.,-0.2
CCCn1c(NCc2ccco2)nc2c1c(=O)n(C)c(=O)n2C,-3.2,-9,4.4,1,6,28%,.,0.1
Cc1ccc(-c2nc(P(=O)(c3ccccc3)c3ccccc3)c(N3CCOCC3)o2)cc1,-4.6,6,3.1,11,-3,-16%,15,0.4
O=[N+]([O-])c1ccc(CSc2ccc(S(=O)(=O)N3CCCCC3)cn2)cc1,.,.,-1.9,0,.,.,-0.1,0.3
N/C(Cn1cncn1)=N\NC(=O)C(=O)Nc1ccc(Cl)cc1Cl,-0.9,-14,2.5,3,26,4%,-0.3,-1.0
